gsp antag – qHTS for Antagonists of gsp, the Etiologic Mutation Responsible for Fibrous Dysplasia/McCune-Albright Syndrome: qHTS. gsp-mutant cells, cAMP HTRF, 30 min; control for the full effect not named in the record. Potency, µM (titrated, usually from 76.9 µM), for the others: at the top dose activity change, negative = inhibition, usual class: inhibitors. 340,000 tested, 0.4% active. AID 624288, 2012; active = falling curve of any shape with a large fitted effect; inconclusive = falling curve, mostly with a smaller effect; inactive = flat or rising curve; cell line not stated here;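 also: intracellular cAMP measured with PDE inhibitor Ro 20-1724 present during compound exposure; potency is read from the fitted curve at half-maximal effect; % is scaled to controls: 0 for no effect and ±100 for the full control effect; nearly all actives have a fitted effect of over 65% in size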
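HTRF cAMP read-out (cAMP-d2 plus anti-cAMP antibody-K in lysis buffer, 30 min RT). Before lysis, cells are exposed to compounds with […] for 30 min at 37C in DPBS containing Ca/Mg, BSA and Tween 20.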
Sfp PPTase inh – qHTS Assay for Inhibitors of Bacillus subtilis Sfp phosphopantetheinyl transferase (PPTase); 4'-phosphopantetheinyl transferase ffp (Bacillus subtilis), Q9F4F7; Biochemical Sfp PPTase activity, qHTS; Potency, µM, without a hit: max response, negative = inhibition, most hits filed as inhibitors; 310,000 tested, 3.5% active; AID 1490, 2009; active = well fitted inhibition curve with a large enough effect; inconclusive = small, poorly fitted or top-dose-only effect, or another doubt; inactive = no such curve, though single readings can be large or run the other way;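 also: the enzyme is Sfp with the accession as filed and its product quenches rhodamine fluorescence; potency is read from the fitted curve at half-maximal effect; 0% = enzyme reaction without inhibitor and -100% = no enzyme wells; top concentration of the series not given in the record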
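With Hepes-Na pH 7.6 buffer containing 10 mM MgCl2, Sfp (15 nM) modified BHQ-2-YbbR (12.5 uM) using rhodamine-CoA (5 uM). Two reads 30 minutes apart at 525/598 nm yielded each well's rate.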
gsp ag – qHTS for Agonist of gsp, the Etiologic Mutation Responsible for Fibrous Dysplasia/McCune-Albright Syndrome: qHTS; gsp mutant cells, cAMP HTRF, 30 min; control for the full effect not named in the record; Potency, µM (series often up to 76.9 µM), for the others: at the top dose activation (cAMP increase), most hits filed as activators; 340,000 tested, 0.13% active; active = well fitted activation curve with a large enough effect; inconclusive = small, poorly fitted or top-dose-only effect, or another doubt; inactive = no such curve, though single readings can be large or run the other way; cell line not stated here;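 also: phosphodiesterase inhibitor Ro 20-1724 added with compounds to block cAMP breakdown; potency is read from the fitted curve at half-maximal effect; nearly all actives have a fitted effect of over 60% in size; about a fifth of the inactives were tested at one dose only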
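Cells stably selected in G418 were plated at 2000/well, grown 16-24 hr, then given compounds in DMSO with the PDE inhibitor […] (300 uM solution added) for 30 min at 37C; cAMP was read by HTRF.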
ClpP mod – qHTS Assay for Activators of ClpP; ATP-dependent Clp protease proteolytic subunit (Bacillus subtilis (strain 168)), P80244; purified B. subtilis ClpP, FRET peptide cleavage, 20 min; Potency, µM (titrated, usually from 57.5 µM), for the others: top-dose activity change, negative = active; 340,000 tested, 1.9% active; AID 651965, 2013; active = well fitted falling curve with a large enough effect; inconclusive = small, poorly fitted or top-dose-only effect; inactive = no such curve, though single readings can be large or run the other way; also: potency is read from the fitted curve at half-maximal effect; the source files actives as falling curves though it sought activators and does not explain the sign; nearly all actives have a fitted effect of over 65% in size; many hits overshoot -100%
Target sequence (P80244 whole entry, looked up): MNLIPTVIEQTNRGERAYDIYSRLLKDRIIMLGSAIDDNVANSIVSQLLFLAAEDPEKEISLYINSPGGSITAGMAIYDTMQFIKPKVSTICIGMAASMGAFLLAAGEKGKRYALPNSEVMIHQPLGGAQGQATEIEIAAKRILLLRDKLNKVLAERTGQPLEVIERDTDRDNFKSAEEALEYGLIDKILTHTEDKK
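Purified B. subtilis ClpP, 10 microg/mL final in Tris/HCl pH8 with KCl, BSA, glycerol and Tween-20, cleaved an Abz/nitrotyrosine-quenched decapeptide. Fluorescence (ex 320, em 430) was read at 0 and 20 min at room temperature. Delta was normalized to 5.8 microM ADEP and DMSO/no-enzyme controls.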
D2 ag – Beta-Arrestin HTS for Positive Allosteric Modulators of the Human D2 Dopamine Receptor: Agonists. DiscoveRx PathHunter D2 beta-arrestin, luminescence, 90 min; 100% = 57 uM dopamine signal. 360,000 tested, 0.084% active. activation, % (concentration not given with the values). D(2) dopamine receptor (Homo sapiens), P14416. AID 624465, 2012; in the data active = activation above about 40%; inconclusive = about 15% to 40%; inactive = below about 15%; also: compound concentration not given in the record; the text of the record calls up to 30% inactive
Target sequence (P14416 whole entry, looked up): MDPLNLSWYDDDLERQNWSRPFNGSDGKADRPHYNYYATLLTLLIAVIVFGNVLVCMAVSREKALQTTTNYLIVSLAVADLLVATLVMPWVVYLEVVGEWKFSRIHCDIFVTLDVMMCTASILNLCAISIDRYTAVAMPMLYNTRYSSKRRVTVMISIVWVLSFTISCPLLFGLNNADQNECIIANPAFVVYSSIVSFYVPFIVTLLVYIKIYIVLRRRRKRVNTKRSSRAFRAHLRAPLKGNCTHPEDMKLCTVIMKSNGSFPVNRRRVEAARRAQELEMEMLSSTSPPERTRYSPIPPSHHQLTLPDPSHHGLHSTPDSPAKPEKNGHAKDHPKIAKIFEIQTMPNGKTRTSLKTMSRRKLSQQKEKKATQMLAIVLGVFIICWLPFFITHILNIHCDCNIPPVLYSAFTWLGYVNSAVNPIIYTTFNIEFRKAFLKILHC
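DiscoveRx PathHunter D2 beta-arrestin cells (2,100/well) attached overnight, then compound-stimulated 90 min at 37 C in HBSS/10 mM HEPES/0.1% Tween-20 buffer; beta-galactosidase complementation read by luminescence after 1 h at ambient temperature. Dopamine 57 uM final (EC100) as control.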
Menin MLL FP FL – qHTS Assay for Inhibitors Targeting the Menin-MLL Interaction in MLL Related Leukemias: Competition With Fluorescein Labeled MLL-derived Peptide; FP activity change, % at 61.4 µM; 290,000 tested, under 10 active; Fluorescence polarization, fluorescein-MLL peptide displacement from menin; inconclusive = falling polarisation curve, or a change in total fluorescence; inactive = total fluorescence flat and polarisation flat or rising; no compound was filed as active; the % refers to the polarisation; negative = inhibition;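 also: % of control where 0% means no effect; inhibitors lower the polarisation; unlabelled MLL peptide was the positive control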
PINK1 modulator – A Quantitative High throughput Screen to Identify Chemical Modulators of PINK1 Expression; Potency, µM (titrated, usually from 76.6 µM), for inactives: top-dose activation (PINK1 increase), actives largely listed as activators; 410,000 tested, 0.2% active; AID 624263, 2012; PINK1 immunofluorescence, high-content cytometry, 24 h; active = well fitted activation curve with a large enough effect; inconclusive = small, poorly fitted or top-dose-only effect; inactive = flat fitted curve, though single readings scatter; cell line not stated here;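 also: potency is read from the fitted curve at half-maximal effect; % of control where 0% means no effect; nearly all actives have a fitted effect of over 65% in size; a mitochondrial uncoupler was the plate control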
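Stable cell line, 250 cells/well, 12 h attachment; compounds pinned at 5 concentrations, 24 h; CCCP control. Fixed with nuclear dye, primary antibodies 12 h at 10 degrees C, secondary plus cell stain; laser-scanning cytometer read.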
* = called active by the depositor; ? = inconclusive; · = no result given; [ ] = another dose, or the depositor's remark.

Values run as follows: D2 ag	ClpP mod	PINK1 modulator	gsp ag	gsp antag	Menin MLL FP FL	Sfp PPTase inh
O=C(COC(=O)CCc1c[nH]c2ccccc12)NC1CCS(=O)(=O)C1 (centres undefined)
 : -1.0	-2.0%	-2.1%	5%	5%	4.4	-7%
COc1ccc(CN(C(=O)c2snc(C(N)=O)c2N)C(C(=O)NC2CCCC2)c2ccc(OC)c(OC)c2)cc1 (centres undefined)
 : 8.8	-9.4%	-0.2%	-17%	-7%	·	5%
CCN(CC)C(=O)c1cncc(C(=O)N(CC)CC)c1-c1ccccc1
 : -2.5	-0.3%	-1.0%	-45%[inhibitor]	4%	1.5	0%
N#Cc1cccc(S(=O)(=O)NCC(=O)OCC(=O)NCc2ccccc2)c1
 : -1.9	-1.7%	1.6%	9%	12%	·	·
COc1ccc(S(=O)(=O)NCCN2CCNC2=O)cc1OC
 : -1.7	-0.5%	1.4%	-5%[15.4 µM]	0%	6.4	25%
O=C(c1ccco1)N1CCC[C@@]2(CCN(c3ccccc3)C2)C1
 : ·	·	1.9%	·	·	1.2	-15%
CC(C)(C)C(=O)Nc1cc(C(F)(F)F)ccc1N1CCOCC1
 : -3.2	1.6%	0.2%	-41%[inhibitor]	-12%	-1.1	4%
Cc1ccc(Cl)cc1NC(=O)Cn1cccc1
 : -1.1	-1.3%	4.3%[38.3 µM]	-11%	14%	1.2	9%
COc1ccc2c(c1)N(C)/C(=C/c1cccc[n+]1C)S2
 : 1.8	0.7%	5µM*	-7%	?	23	-11%
COc1cc(/C=N/NC(=O)c2ccoc2C)ccc1OCCN1CCCCC1
 : 3.4	-13%	1.6%	-10%	5%	·	11%
CC(=O)Nc1cccc(C(=O)OCC(=O)c2ccc3c(c2)OCO3)c1
 : -1.7	13µM*	-1.4%	-5%[15.4 µM]	-4%	·	·
CCCOc1ccc(Cc2nn3c(=O)/c(=C/c4ccco4)sc3nc2=O)cc1
 : -0.6	0.9%	-0.5%	?	-5%	12	50µM*
CS(=O)(=O)Nc1ccc(C(=O)Nc2ccccc2Cl)cc1
 : -1.7	·	0.4%	?	2%	2.0	20%
CC(C)Oc1ccc(C(=O)NC(=S)Nc2ccc(Cl)c(C(=O)O)c2)cc1
 : -5.2	1.1%	-0.2%	-7%	?	0.5	?
CCN1CCN(CCCNC(=O)CCc2nc(-c3ccc(OC)cc3)no2)CC1
 : -2.5	1.0%	1.9%	12%	17%	1.0	16%
CCOC(=O)N1CCC(NC(=O)CCC(=O)N2CC(C)Oc3ccc(C)cc32)CC1 (centres undefined)
 : -0.2	-0.8%	0.4%	-11%	5%	2.6	19%
CC(C)(CO)Nc1ccc([N+](=O)[O-])cc1[N+](=O)[O-]
 : 1.4	1.0%	-1.8%	15%	1%	-1.6	23%
NC(=S)C1COc2ccccc2O1 (centres undefined)
 : -5.9	·	16%	9%[15.4 µM]	14%	-0.4	-15%
CC(=O)Nc1ccc(S(=O)(=O)NN=c2sc3ccccc3n2C)cc1N
 : -0.2	0.2%	0.7%	?	·	·	·
CCS(=O)(=O)n1nc(-c2ccc(Cl)cc2)nc1SCc1ccccc1
 : -1.4	-7.6%	?	-36%[inhibitor]	-14%	0.2	-2%
COCCNc1nc2ccccc2nc1NS(=O)(=O)c1ccc(C)cc1C
 : 1.0	28µM*	2.9%	?	-2%	3.2	19%
CCOC(=O)N1CCN(C(=O)CN(Cc2ccc(Cl)cc2)S(C)(=O)=O)CC1
 : 2.6	4.3%	5.6%	?	-1%	0.3	11%
O=C(OCC(=O)N1CCCC1)c1cc2c(cc1[N+](=O)[O-])OCCO2
 : -1.5	-0.7%	2.8%	1%	10%	·	·
COc1ccccc1NC(=O)C(C)Nc1ccc(C)c(Cl)c1 (centres undefined)
 : -1.3	-27%	2.3%	-16%[15.4 µM]	-2%	0.4	12%
CCn1c(SCC(=O)Nc2ccccc2C(=O)OC)nnc1-c1cccc(C)c1
 : -0.9	-0.5%	·	-19%	-16%	-0.8	-8%
COc1ccc(N(C)S(=O)(=O)c2cccc(C(=O)OCC(=O)c3c(N)n(C)c(=O)n(C)c3=O)c2)cc1
 : 4.3	0.0%	0.0%	1%	?	·	·
CC(=O)c1c(C)[nH]c(C(=O)OCC(=O)Nc2ccc3c(c2)OCCO3)c1C
 : -0.5	1.3%	2.6%	?	?	·	·
Cc1nn(-c2nc(-c3ccco3)cc(C(F)(F)F)n2)c(C)c1Cl
 : -1.8	-7.1%	17%	-37%[inhibitor]	12%	2.4	15%
O=C(O)CC(NC(=O)C1c2ccccc2Oc2ccccc21)c1ccc(Cl)cc1 (centres undefined)
 : 0.4	-0.6%	-1.1%	-23%	-17%	5.8	-4%
CC(C)(C)[C@H]1COC(=O)CCCC/C=C\C[C@H](CC(=O)N(CCO)Cc2ccccc2)C(=O)N1
 : 1.2	0.9%	-0.3%	·	-2%	·	·
CCOCC(=O)OCC(=O)Nc1cc(OC)c([N+](=O)[O-])cc1C
 : 1.7	-0.3%	-0.6%	0%[15.4 µM]	-9%	-1.2	13%
CC(CCN1CCC(CN2C(=O)C(=O)NC[C@@H]2Cc2ccccc2)CC1)c1ccccc1 (some centres undefined)
 : -1.7	-4.9%	0.3%	·	7%	·	·
O=S(=O)(Nc1cccc(S(=O)(=O)N2CCCCCC2)c1)c1ccc(F)cc1F
 : 1.8	·	1.7%	-19%	-15%	·	·
CCOC(=O)N1CCN(C(=O)C2CC(c3ccc(F)cc3)=NO2)CC1 (centres undefined)
 : 0.5	-1.2%	-0.1%	16%	6%	1.4	19%
COc1ccc(CCNC(=O)C2CCN(S(=O)(=O)c3ccc(Cl)cc3)CC2)cc1OC
 : -1.5	2.4%	?	-18%	8%	-0.6	15%
CCC1(OC(=O)CN(C)C)C(=O)OCc2c1cc1n(c2=O)Cc2cc3c(N)cccc3nc2-1 (centres undefined)
 : 2.8	-0.4%	-4.4%	25%	-15%	·	·
CCc1noc(C)c1C(=O)Nc1ccc(S(=O)(=O)N2CCC(C)CC2)cc1
 : 4.2	1.6%	-0.2%	-1%[15.4 µM]	-10%	·	·
COc1ccc(CC(=O)Nc2cccc(-c3ccc4nnc(C)n4n3)c2)cc1
 : 0.7	·	5.0%	26%	-11%	-0.5	18%
Cc1ccc(-c2cc(C(=O)O)c3sc(N4CCCCC4)nc3n2)cc1
 : -4.5	?	3.6%	-6%	-29%	-0.7	-12%
Cc1ccc(S(=O)(=O)Cn2nnnc2C(c2ccccc2)N2CCN(c3ccccc3)CC2)cc1 (centres undefined)
 : -0.7	-1.5%	0.0%	-6%	10%	-3.5	9%
O=C(c1ccc(Cl)cc1)N1CCN(S(=O)(=O)/C=C/c2ccccc2)CC1
 : 3.8	1.7%	-1.4%	-45%[inhibitor]	-13%	·	·
COc1ccccc1C(=O)N/N=C(\C)c1cccnc1
 : -0.8	·	-1.1%	6%[15.4 µM]	3%	·	·
COc1ccc(CCNC(=O)COC(=O)c2ccccn2)cc1
 : 4.7	·	0.2%	-11%	5%	·	·
NC(=O)Cc1ccc2c(c1)[nH]c1ccccc12
 : -3.1	-20%	0.2%	0%	6%	-0.3	2%
CS/C(=N\N(C)C(N)=O)c1ccccc1
 : -0.6	1.5%	-0.5%	-35%	15%	1.7	2%
CC1(NC(=O)CC(c2ccccc2)(c2ccccc2)c2ccccc2)CCN(Cc2ccc(-c3ccccc3)cc2)C1=O (centres undefined)
 : -2.4	-3.0%	0.0%	-24%	1%	·	·
COC(=O)c1ccc(S(=O)(=O)N2CCc3ccccc3C2)cc1
 : 2.1	0.4%	5.4%	-21%	7%	-0.5	14%
COc1ccc(N2CCN(CCNC(=O)Nc3ccc(C)cc3Cl)CC2)cc1
 : -3.8	-19%	3.4%	-40%[inhibitor]	7%	-0.1	10%
CCOC(=O)C1(Cc2ccccc2)CCCN(Cc2ccc(OCCO)cc2)C1 (centres undefined)
 : -3.0	·	1.8%	5%	1%	1.7	14%
O=C(O)C1CC(c2ccc(F)cc2)=NO1 (centres undefined)
 : -1.9	0.5%	-2.7%[38.3 µM]	-36%[inhibitor]	5%	-0.8	3%
CC(=O)c1cccc(NC(=O)NC(C)C2CCCO2)c1 (centres undefined)
 : -0.8	0.5%	-0.5%	-8%	2%	1.9	17%
CN(C)/C=C/C(=O)c1cnc2n(c1=O)CCS2
 : -2.6	·	0.6%	-53%[inhibitor]	-2%	-0.3	-2%
CCOc1ccc(N2C(=O)CN(C)C2=S)cc1
 : 1.4	1.1%	1.7%	-22%	-4%	6.0	-3%
O=C(COc1ccccc1F)N1CCCc2ccccc21
 : 3.9	-0.5%	0.1%	20%[15.4 µM]	-2%	-1.3	16%
Cc1noc(C)c1-c1cncnc1-n1ccnc1
 : ·	·	0.4%	·	·	11	8%
Cc1ccc2c(c1)C(=O)OC1(O)C3C4C=CC(C4)C3C(=O)N21 (centres undefined)
 : -1.9	2.1%	-2.8%	?	5%	-1.8	23%
COc1cccc(CN(C)C(=O)c2ccc(C)c(S(=O)(=O)N3CCCCC3)c2)c1
 : -0.6	-0.6%	-2.2%	0%	1%	·	·
